Arbovirus inh – arbovirus infection inhibition. arbovirus infection cell-based antiviral screen. inhibition, % at 10 µM. actives 0.37% (n = 200,000). AID 1251;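 active means inhibition from about 30%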;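 further: bluetongue infection of BSR cells; cell survival read as ATP light after 72 h; 0% = infected wells without compound and 100% = uninfected wells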
Mtb H37Rv – M. tuberculosis H37Rv growth inhibitors, H37Rv strain (AID 1626). M. tuberculosis H37Rv growth inhibition; higher % means a stronger effect. actives 0.95% (n = 220,000). inhibition, % at 10 µM; hits with a dose series show IC50 in µM;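 active means confirmed in a dose series; inconclusive means inhibition above 80% but not taken into the dose series; inactive means below 80% or under 30% at every dose of the series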;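 further: bacteria incubated seven days before Alamar blue readout; 0% = bacteria only wells and 100% = bacteria with antibiotic wells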
Mtb bLac sens – beta-lactam sensitization of Mtb H37Rv. M. tuberculosis H37Rv growth with meropenem, percent inhibition; hits of this screen are not shown here. inhibition, % at 25 µM. actives 0.27% (n = 330,000);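 active means about 74% or more and at least 40 points above the plate without the antibiotic, then above 30% in a dose series; inconclusive means first-round hits that could not be retested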;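 further: growth measured after seven days incubation then overnight dye step; 0% = bacteria only wells and 100% = bacteria with antibiotic; twin plates without the antibiotic show which effects depend on it; some results filed as inactive read as strong as hits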
RecA splice inh – Mtb RecA intein splicing inhibition; cell-free RecA intein splicing, fluorescence; inhibition, %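 (about 9 µM by stock and volumes)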; actives 0.75% (n = 290,000); AID 2221; in the data active means inhibition above about 30%; inconclusive means no clear call, values can overlap the other calls;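 further: 0% = vehicle wells and 100% = reference inhibitor control wells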
Target sequence (P9WHJ3 whole entry, looked up, canonical isoform): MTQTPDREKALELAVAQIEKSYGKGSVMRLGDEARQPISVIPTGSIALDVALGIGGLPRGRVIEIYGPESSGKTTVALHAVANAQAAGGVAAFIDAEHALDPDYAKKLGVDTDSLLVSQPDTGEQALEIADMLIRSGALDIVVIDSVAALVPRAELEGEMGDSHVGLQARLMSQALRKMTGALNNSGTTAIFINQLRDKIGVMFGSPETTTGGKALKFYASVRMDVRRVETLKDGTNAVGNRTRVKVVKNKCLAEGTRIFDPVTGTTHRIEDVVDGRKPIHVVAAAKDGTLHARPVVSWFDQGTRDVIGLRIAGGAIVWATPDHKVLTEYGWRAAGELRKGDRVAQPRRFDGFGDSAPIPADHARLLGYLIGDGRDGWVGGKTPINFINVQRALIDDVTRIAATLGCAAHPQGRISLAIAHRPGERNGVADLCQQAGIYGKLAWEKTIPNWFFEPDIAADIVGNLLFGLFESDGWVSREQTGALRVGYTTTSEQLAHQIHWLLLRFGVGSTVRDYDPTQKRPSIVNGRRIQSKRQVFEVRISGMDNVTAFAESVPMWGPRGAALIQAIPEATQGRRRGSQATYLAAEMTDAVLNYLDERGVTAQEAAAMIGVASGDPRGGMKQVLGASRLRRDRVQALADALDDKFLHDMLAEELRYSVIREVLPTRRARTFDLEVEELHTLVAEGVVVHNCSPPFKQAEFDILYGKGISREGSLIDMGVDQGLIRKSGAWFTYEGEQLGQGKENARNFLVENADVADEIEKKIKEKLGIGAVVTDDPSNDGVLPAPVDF
YopH inh – YopH (Yersinia) phosphatase inhibition; actives 0.16% (n = 140,000); fluorescence Ex485/Em525; inhibition, %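 (about 10 µM by stock and volumes)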; AID 898;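 active means inhibition of 50% or more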;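 further: controls were vehicle for no effect and minimum signal wells for full effect; inactives centre near -20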
Arbovirus inh repeat – also measured in Arbovirus inh; calls as there; inhibition, %; measured here: 10K subset replicate screen; many hits read low in the repeat;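 first of two repeat runs on a subset; 0% = infected and 100% = uninfected wells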
Starred values were filed as active, the others as inactive; ? = inconclusive; / = not tested or not shown. Only part of the results is shown; count on the stated rates, not on these rows.

SMILES	Arbovirus inh	Mtb H37Rv	Mtb bLac sens	RecA splice inh	YopH inh	others
Cc1cc2oc(C(=O)NCc3ccccc3)cc(=O)c2cc1C	/	/	1	-1.6	/
CC1CCc2c(sc(NC(=O)c3cccs3)c2C(=O)O)C1 (stereo unspecified)	/	/	72	-3.0	/
CC1(C)CC(=O)C=C(NCCN2CCN(C(=S)Nc3ccc(F)cc3)CC2)C1	/	-6%	-4	-2.1	/
O=C(Cn1cc2c(n1)CCCCC2)N1CCCCC1	2	-3%	-2	1.2	-14	Arbovirus inh repeat=7
O=C(Nc1c(S(=O)(=O)c2ccccc2)csc1Br)c1ccccc1Cl	/	-14%	4	1.3	/
CCOC(=S)N/C(=N\S(=O)(=O)c1ccc(C)cc1)c1ccccc1	-6	0%	-1	-1.1	-49
C=CCOC(=O)C(=O)/C=C/c1coc2ccccc2c1=O	3	-14%	-7	-131	/
Cc1cccc(Nc2nnc(SCC(=O)Nc3ccccc3[N+](=O)[O-])s2)c1C	16	20%	70	-1.7	-24
Cc1ccc2c(c1)C(=O)C(=O)N2CC1COc2ccccc2O1 (stereo unspecified)	/	/	4	6.1	/
c1cncc(-c2nnc3sc(-c4ccco4)nn23)c1	8	-7%	-8	0.7	-58

Brought forward from above: four compounds; new compounds follow.
SMILES	Arbovirus inh	Mtb H37Rv	Mtb bLac sens	RecA splice inh	YopH inh	others
C=CCOC(=O)C(=O)/C=C/c1coc2ccccc2c1=O	3	-14%	-7	-131	/
Cc1cccc(Nc2nnc(SCC(=O)Nc3ccccc3[N+](=O)[O-])s2)c1C	16	20%	70	-1.7	-24
Cc1ccc2c(c1)C(=O)C(=O)N2CC1COc2ccccc2O1 (stereo unspecified)	/	/	4	6.1	/
c1cncc(-c2nnc3sc(-c4ccco4)nn23)c1	8	-7%	-8	0.7	-58
CCOc1ccccc1CN1C2CCC1CC(c1ccc(C)cc1)C2 (stereo unspecified)	/	/	15	0.5	/
COc1ccc(-c2[nH]c(-c3ccc(F)cc3)nc2SCC(=O)NCc2ccco2)cc1OC	-3	1%	-1	2.7	-43	Arbovirus inh repeat=-8
COC(=O)c1ccc(C(=O)OC)c(NC(=S)N2CCCC(C)C2)c1 (stereo unspecified)	-6	1%	-5	-1.3	-5
O=C(CCc1nnc(C2(c3ccc(Cl)cc3)CCC2)o1)N1CCCC(O)C1 (stereo unspecified)	/	/	-7	0.2	/
Cc1ccccc1N1C(=O)CC(N2CCN(C(=O)c3ccco3)CC2)C1=O (stereo unspecified)	/	/	5	1.1	/
S=C(NC1CCCCC1)N1CCn2cccc2C1c1cccnc1 (stereo unspecified)	16	2%	3	3.3	/
COc1ccc(NC(=O)c2ccc3[nH]c(C)c(C)c3c2)c(OC)c1	/	/	3	-1.5	/
COc1cccc(CNC(=O)C2CCN(C(=O)N(C)C)CC2)c1	8	-6%	7	0.8	-45
CCC(Oc1ccc2ccccc2c1)C(=O)O (stereo unspecified)	1	13%	6	0.5	-5
Cn1nc(C(=O)OCC(=O)Nc2cccc(S(=O)(=O)N3CCCC3)c2)c2ccccc2c1=O	/	8%	0	0.1	/
CCOC(=O)c1cn(CC)c2cc(N3CCN(C)CC3)c(F)cc2c1=O	/	/	8	-2.0	/
COc1ccc([N+](=O)[O-])cc1NC(=O)CSc1ccc2ccccc2c1	2	13%	92	5.5	1
N=c1ncn(CC(O)CN2CCOCC2)c2nc(N3CCOCC3)[nH]c12 (stereo unspecified)	10	/	-15	-2.6	-20
c1cnc(N2CCSCC2)nc1	7	-10%	-3	-2.0	-16	Arbovirus inh repeat=-2
O=S(=O)(NCC1CCCO1)c1cnc(Cl)c(Cl)c1 (stereo unspecified)	0	-5%	-4	1.4	-15
CCN(C(=O)Nc1cccc(Cl)c1)c1ccccc1	/	/	0	-2.3	/
COc1ccc(C(=O)C2CCCN(C(=O)C3CCOCC3)C2)cc1OC (stereo unspecified)	/	/	2	-0.3	/
CCc1nc(SCC(=O)c2ccc(Cl)s2)c2oc3ccccc3c2n1	-2	6%	9	2.1	-2
CCOc1ccc(OCCSc2nc(N)cc(=O)[nH]2)cc1	/	3%	-8	-4.0	/
CN(C1CCCCC1)S(=O)(=O)c1ccccc1	-3	-5%	-10	-2.0	1
CC1C(=O)N2CCCc3cc(NS(=O)(=O)c4ccc([N+](=O)[O-])cc4)cc1c32 (stereo unspecified)	/	/	-5	-0.7	/
O=C1CC2c3ccccc3C1C1C(=O)N(CCO)C(=O)C21 (stereo unspecified)	1	-2%	7	1.0	/
O=C(O)c1cccc(OCCN2CCCC2=O)c1	/	/	-8	1.2	/
O=C(O)CNC(=O)C(c1ccccc1)c1ccccc1	/	-2%	0	3.7	/
NC(=O)COc1ccc(/C=N\NC(=O)CC(=O)NCCc2ccccc2)cc1	/	/	1	0.8	/
c1ccc(Cc2nn[nH]n2)cc1	2	2%	7	-0.6	-21
Cc1ccc(SCCN2CCN(CCc3ccccc3)CCC2=O)cc1	/	-7%	-5	2.2	/
CCc1c(C(=O)Nc2cc(C)cc(C)c2)[nH]c(C)c1C(C)=O	1	-4%	?	-5.0	14
O=C(c1cc(-c2ccccc2)n[nH]1)N1CCN(S(=O)(=O)c2ccccc2)CC1	/	/	?	-0.6	/
CC1CN(CCc2ccccc2)c2nc3c(c(=O)n(C)c(=O)n3C)n2C1 (stereo unspecified)	/	/	2	0.3	/

Arranged by heavy-atom count (ascending): part of the list above
SMILES	Arbovirus inh	Mtb H37Rv	Mtb bLac sens	RecA splice inh	YopH inh	others
O=C(O)c1cccc(OCCN2CCCC2=O)c1	/	/	-8	1.2	/
O=C(O)CNC(=O)C(c1ccccc1)c1ccccc1	/	-2%	0	3.7	/
CCc1c(C(=O)Nc2cc(C)cc(C)c2)[nH]c(C)c1C(C)=O	1	-4%	?	-5.0	14

Back to the main list with the three entries that preceded the break.
SMILES	Arbovirus inh	Mtb H37Rv	Mtb bLac sens	RecA splice inh	YopH inh	others
CCc1c(C(=O)Nc2cc(C)cc(C)c2)[nH]c(C)c1C(C)=O	1	-4%	?	-5.0	14
O=C(c1cc(-c2ccccc2)n[nH]1)N1CCN(S(=O)(=O)c2ccccc2)CC1	/	/	?	-0.6	/
CC1CN(CCc2ccccc2)c2nc3c(c(=O)n(C)c(=O)n3C)n2C1 (stereo unspecified)	/	/	2	0.3	/
COc1ccc(/C(C)=N/NC(=O)CNC(=O)CCc2ccccc2)c(OC)c1	/	1%	1	2.0	/
NC(=O)C1(N2CCCCC2)CCN(C2CC(=O)N(Cc3ccc(N4CCCC4=O)cc3)C2=O)CC1 (stereo unspecified)	6	2%	-11	0.6	3
COc1ccc(CNC(=O)c2ccc3nccnc3c2)cc1	-3	3%	2	4.4	-39
Cc1cccc(N(CC(=O)N/N=C/c2cc([N+](=O)[O-])ccc2Cl)S(C)(=O)=O)c1C	10	7%	8	2.6	-15
O=C(CCN1CCOCC1)Nc1cc(C(=O)Nc2ccccc2F)ccc1N1CC2CC(C1)c1cccc(=O)n1C2 (stereo unspecified)	/	/	4	1.0	/
COc1ccc(/C=N/NC(=O)CCSc2nc3ccccc3s2)cc1OC	-13	-4%	-6	1.4	-24
CCN(CC)CCCNC(=O)C1c2cc(OC)c(OC)cc2C(=O)N(C)C1c1cccnc1 (stereo unspecified)	-4	-5%	-3	0.8	/
O=C(c1cnc(N2CCN(c3ccccn3)CC2)c2ccccc12)N1CCN(c2cccc(Cl)c2)CC1	1	8.7µM*	63	5.4	/
O=S1(=O)CC2N=C(N(Cc3c(F)cccc3Cl)c3ccccc3F)SC2C1 (stereo unspecified)	2	3%	3	8.7	-31
CN(C)c1ccc(-c2cc([C@H]3[C@@H]4C=CCC[C@@]4(C)C(=O)N3Cc3ccccc3)ccc2F)cc1	/	8%	-1	11	/
CC(C)(C)NCC1(CO)SC(N)=NC1=O (stereo unspecified)	2	-4%	?	0.0	-34
CC(C)NS(=O)(=O)c1ccc(CCC(=O)N2CCCC2)cc1	0	-5%	3	-2.6	/
CC(C)OCCCNCc1cccs1	2	3%	-6	0.7	-1
Cc1ccc(Sc2c(C)nn(C(=O)C3CC3)c2C)cc1	-2	7%	7	8.8	-15
CCOC(=O)C1=C(C)NC(=O)NC1c1cn(-c2ccccc2)nc1-c1cccs1 (stereo unspecified)	15	-4%	6	5.2	-27	Arbovirus inh repeat=-6
CCOCCCNS(=O)(=O)c1ccc(NC(=O)c2ccc(OC)c([N+](=O)[O-])c2)cc1	-2	1%	-5	0.4	/
O=C(C[n+]1ccc2ccccc2c1)c1ccccc1	/	-10%	1	-0.8	/
CCCCc1nnc(NC(=O)C(C)Sc2nc(C)cc(=O)[nH]2)s1 (stereo unspecified)	7	3%	-4	-5.3	-20
C#CC[N+](C)(C)CCCCCCCCCC	-29	3%	1	2.7	-20
Cc1cc(C)c(Cn2c(=O)n(CCCC(=O)NCc3ccco3)c(=O)c3sccc32)c(C)c1	-7	-10%	0	/	-31

Filtered by structure: those above containing a nitro group on carbon
SMILES	Arbovirus inh	Mtb H37Rv	Mtb bLac sens	RecA splice inh	YopH inh	others
Cc1cccc(Nc2nnc(SCC(=O)Nc3ccccc3[N+](=O)[O-])s2)c1C	16	20%	70	-1.7	-24
COc1ccc([N+](=O)[O-])cc1NC(=O)CSc1ccc2ccccc2c1	2	13%	92	5.5	1
CC1C(=O)N2CCCc3cc(NS(=O)(=O)c4ccc([N+](=O)[O-])cc4)cc1c32 (stereo unspecified)	/	/	-5	-0.7	/
Cc1cccc(N(CC(=O)N/N=C/c2cc([N+](=O)[O-])ccc2Cl)S(C)(=O)=O)c1C	10	7%	8	2.6	-15
CCOCCCNS(=O)(=O)c1ccc(NC(=O)c2ccc(OC)c([N+](=O)[O-])c2)cc1	-2	1%	-5	0.4	/

More compounds follow.
SMILES	Arbovirus inh	Mtb H37Rv	Mtb bLac sens	RecA splice inh	YopH inh	others
COc1cc(/C=C/c2[nH]c(=O)[nH]c(=O)c2[N+](=O)[O-])ccc1OCCC(C)C	-2	-9%	0	1.2	/
CCN(CC)S(=O)(=O)c1ccc(C(=O)Nc2ccc(Cc3ccncc3)cc2)cc1	-27	-1%	-1	3.2	/
COc1cc2c(cc1NC(=O)c1cccc(Br)c1)CCCC2	5	/	8	9.0	-30
Cc1cc(/C=C2\SC(=O)NC2=O)c(C)n1-c1ccc(N(C)C)cc1	/	/	0	-0.6	/
CCCn1c2ccccc2c2cnn(CC(=O)N(CC)CC)c(=O)c21	/	/	5	1.2	/
Cc1cccc(OCCSc2nc(N)cc(N)n2)c1	/	4%	0	-1.5	/
COc1ccc2nc(C)cc(Nc3ccc(N4CCN(C)CC4)cc3)c2c1	/	/	1	-0.2	/
COc1ccc(CN2CCN(c3ccccc3)CC2)c(C)c1C	-1	-20%	8	-3.0	3
COc1ccc(C(=O)CSc2n[nH]c(=O)[nH]c2=O)cc1	12	2%	0	-3.4	/
Cc1ccc(C2=CSC3=NS(=O)(=O)CCN23)cc1C	-4	1%	-12	-0.9	16
Cc1ccc(-n2nnnc2CNC(=O)C2CC(=O)N(c3ccccc3)C2)cc1C (stereo unspecified)	/	/	10	0.9	/
CN(C)C(CNS(=O)(=O)c1ccc(Br)cc1)c1cccnc1 (stereo unspecified)	-1	-11%	-8	0.7	-33
O=C(OCC(=O)N1CCN(C(=O)c2ccco2)CC1)c1cc(=O)c2ccccc2o1	-5	-4%	-4	-2.0	-19
CC(C)(C)C(=O)NC(=S)NCc1ccccc1	-8	8%	5	-3.5	-15
O=C(CSc1ccccn1)Nc1ccc2ccccc2c1	-10	8.7µM*	-4	1.7	/
COCCNC(=O)c1cnn2c(C(F)F)cc(-c3ccc(C)cc3)nc12	-11	25%	5	-1.9	/

Screens from PubChem BioAssay.
